Screens (PubChem)
Ba CapD inh: blocks the Bacillus anthracis CapD enzyme; purified CapD enzyme, fluorescence intensity read-out; hits give low values; some hits fall short of the stated cut; z-score (concentration not given with the values); 0.23% of 140,000 active;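 active means z-score under -4 in either of two replicates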;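 further: stock transfer was 100 nL into about 40 µL; score is relative to mean and spread of the plate; one replicate is shown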
AID504770: growth inhibitors of E. coli YBA685 in a screen for V. cholerae RctB (chromosome II replication) inhibitors. AID 504770. z-score (concentration not given with the values). E. coli YBA685 rctB-dependent plasmid, OD600 growth, 3 h; hits give low values. 0.27% of 130,000 active;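 active means z-score under -2 on both plates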;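 further: wells of about 30 µL received 100 nL stock; score is relative to mean and SD of the test wells; the first replicate is given; strong numbers were not always called active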
Starred values were filed as active, the others as inactive; x = not tested or not shown.

mol | Ba CapD inh | AID504770
COc1ccc(S(=O)(=O)n2nnc3ccccc32)cc1C | 0.24 | x
CCOC(=O)Cn1c(=O)c(C2OCCO2)cc2c(C)ccc(C)c21 | x | -0.35
COc1ccc(C2CC(=O)C3=C(C2)NC(=O)CC3c2ccccc2)cc1 (stereo not drawn) | -0.23 | 0.3
COc1ccc2[nH]c(=O)c(CN(CCO)S(=O)(=O)c3ccc(Cl)c(C(F)(F)F)c3)cc2c1 | x | 1
COc1ccc(NC(=O)COC(=O)C2CCN(C(=O)Nc3ccccc3)CC2)cc1Cl | x | 0.1
Cc1nc2n(Cc3ccccc3)c3ccccc3n2c1C(=S)Nc1ccccc1 | -0.26 | 1.1
CC1Cc2ccccc2N1S(=O)(=O)c1cccc(C(=O)NC2CC2)c1 (stereo not drawn) | -0.64 | -0.95
CN(C)C(=O)c1cc(S(=O)(=O)N(C)C)c(Cl)cc1N1CCCC1 | -0.09 | 0

(more compounds)
mol | Ba CapD inh | AID504770
O=c1[nH]cc(N2CCN(c3ncc(C(F)(F)F)cc3Cl)CC2)c(=O)[nH]1 | 0.59 | x
CCC(CC)NC1CCN(Cc2ccccc2)CC1 | x | 2
CC(C)NC(=O)C1=CC(c2ccco2)=NS(=O)(=O)N1C | 0.82 | 1.6
O=S(=O)(NCc1ccccn1)c1cccc2nsnc12 | -0.4 | x
N#CCC(=O)Nc1ccc(C(=O)OCC(=O)N(Cc2ccccc2)C2CCS(=O)(=O)C2)cc1 (stereo not drawn) | x | -0.65
CCCC(=O)Nc1ccc(-n2c(C)ccc2C)cc1 | x | -0.5
c1ccc(-c2csc(N3CCN(c4ncccn4)CC3)n2)cc1 | 0.14 | -0.45
COC(=O)C1=C(Nc2ccc3c(c2)OCCO3)CSC1 | 0.16 | 0.2

Next part.
mol | Ba CapD inh | AID504770
COCCCn1c(C)cc(C(=O)Cn2nc(C)c(C)c(C#N)c2=O)c1C | x | -0.7
O=C(/C=C/c1ccc2c(c1)OCO2)N/N=C/c1ccc(O)cc1O | -1.6 | x
O=C1CN(NC(=O)NC2CCCCC2)C(=O)N1 | x | 0.05
O=C(Nc1ccc(Cn2nnc3ccccc32)cc1)c1cccs1 | x | 0.4
CCOC(=O)c1ccc(Oc2cc(C)nc(SC)n2)cc1 | -1.2 | -1.1
CCCCn1c(=O)[nH]c2c(c1=O)CCC2 | 0.71 | 0.85
CCCN1C(=O)C(O)(CC(=O)c2ccc(OC)cc2OC)c2cc(Br)ccc21 (stereo not drawn) | -0.53 | 0.3
C[N+]1(CC(O)C[N+]2(C)CCCCC2)CCCCC1 | 0.18 | -1.1

More entries
mol | Ba CapD inh | AID504770
CSCCNC(=O)NCCNc1ccc([N+](=O)[O-])cn1 | -0.42 | x
O=C1c2ccccc2C(=O)c2cc(S(=O)(=O)Nc3nc4ccccc4s3)ccc21 | -1.1 | x
O=[N+]([O-])c1cc(C(F)(F)F)ccc1-c1ccc(C(F)(F)F)cc1[N+](=O)[O-] | 0.39 | x
O=C(COc1ccc(Cl)cc1Cl)NC1(C(=O)Nc2cccc(Cl)c2)CCCCC1 | -0.3 | x
c1cn(-c2ccc(N3CCCCC3)nn2)cn1 | -0.39 | -1
N=C1/C(=C2\Nc3ccccc3S2)CC(=O)N1CCc1ccccc1 | x | -0.85
CCCc1nnc(SCC(=O)Nc2ccccc2)o1 | x | -0.1
CCOc1ncccc1C(=O)Oc1ccc2c(c1)OCO2 | x | -0.75

Next part:
mol | Ba CapD inh | AID504770
CC(=O)OC1CCC2(C)C(CCC3C2C[C@H](OC(C)=O)C2(C)C(C(C)CC=C(c4ccccc4)c4ccccc4)CCC32)C1 (stereo partly drawn) | 1.1 | x
CC(C)Cn1c(=O)c(C(=O)Nc2nc3ccc(F)cc3s2)c(O)c2ccccc21 | 0.025 | x
Cc1cc(C(=O)OCC(=O)N2c3ccccc3Sc3ccccc32)no1 | x | -0.15
CC(OC(=O)c1ccc(Oc2ccccc2)cc1)C(N)=O (stereo not drawn) | x | -0.2
COc1ccc(/C=C2\SC(=O)N(CC(=O)Nc3sc4c(c3C(N)=O)CCCC4)C2=O)cc1OC | -0.28 | x
CC(=O)N1CC=C2C(C#N)=C(N)C(C#N)(C#N)C(CCc3ccccc3)C2C1 (stereo not drawn) | x | 2
Cc1ccc(C(=O)N/C(=C/c2ccc(N(C)C)cc2)C(=O)NCc2ccco2)cc1 | -0.22 | x
O=C(NCC(O)c1ccc2ccccc2c1)c1c(F)cccc1F (stereo not drawn) | -0.14 | 0.75

Taken from above.
CC(=O)OC1CCC2(C)C(CCC3C2C[C@H](OC(C)=O)C2(C)C(C(C)CC=C(c4ccccc4)c4ccccc4)CCC32)C1 (stereo partly drawn) @ Ba CapD inh = 1.1
CC(C)Cn1c(=O)c(C(=O)Nc2nc3ccc(F)cc3s2)c(O)c2ccccc21 @ Ba CapD inh = 0.025
COc1ccc(/C=C2\SC(=O)N(CC(=O)Nc3sc4c(c3C(N)=O)CCCC4)C2=O)cc1OC @ Ba CapD inh = -0.28
O=C(NCC(O)c1ccc2ccccc2c1)c1c(F)cccc1F (stereo not drawn) @ Ba CapD inh = -0.14

(listing goes on)
mol | Ba CapD inh | AID504770
C=CCOc1ccc2ccccc2c1C=C1C(=O)N(C)C(=O)N(C)C1=O | 0.11 | x
NS(=O)(=O)c1cccc(C(=O)OCc2ccc(Cl)cc2)c1 | x | -1.3
Cc1cc(-c2ccccc2N)n[nH]1 | 66 | 1.4
COc1ccc(-c2c(C(F)(F)F)oc3c(CN4CC(C)OC(C)C4)c(O)ccc3c2=O)cc1OC (stereo not drawn) | 0.17 | x
NC(=O)CSc1nnc(-c2cccnc2)n1-c1ccccc1 | 70 | 0.05
COC(=O)c1cnc(-n2ncc(C#N)c2N)nc1C(F)(F)F | 0.59 | 0.35
O=C(NCCc1c[nH]c2ccccc12)c1cc2ccccc2oc1=O | 1 | -0.8
O=S(=O)(NCc1ccc2c(c1)OCO2)c1ccc(F)c(Cl)c1 | -0.57 | x

The results go on:
mol | Ba CapD inh | AID504770
CC(=O)Nc1sc2c(c1C(N)=O)CCCC2 | x | 0
O=C(NCCCN1CCCC1=O)c1c(O)nc2ccccn2c1=O | 97 | -2
N#C/C(=C(/O)CCCN1C(=O)c2ccccc2C1=O)c1nc2ccccc2[nH]1 | x | -0.5
CC(O)(CNCc1ccc(Cl)cc1)CSc1ccccc1Cl (stereo not drawn) | 0.93 | -0.75
Cc1ccccc1C(=O)ON1CCCc2ccccc21 | 0.17 | -0.4
O=C(OCc1c(Cl)cccc1Cl)c1ccc(Br)o1 | 0.16 | -0.45
COc1ccc(N=Cc2ccccc2N2CCN(C)CC2)cc1 | -0.84 | 0.25
CSc1sccc1/C=C(/C#N)S(C)(=O)=O | -0.35 | x

Going on with the list:
mol | Ba CapD inh | AID504770
COc1ccc(N2CCN(C(=O)CSc3nc4[nH]ncc4c(=O)n3-c3ccc(Br)cc3)CC2)cc1 | 0.32 | x
Cn1c(CCC(=O)NCc2ccc(C(F)(F)F)cc2)nc2ccccc21 | 0.96 | x
COC(=O)c1ccc(C2Oc3ccc(Cl)cc3C3CC(c4ccc(OC)cc4)=NN32)cc1 (stereo not drawn) | 0.16 | x
CCOc1ccc(-c2nnn(CC(=O)NC3CCCCC3)n2)cc1 | x | 0.1
CSC1=C(C#N)C(c2ccccc2Cl)C2=C(CCCC2=O)N1 (stereo not drawn) | 3.1 | -1
CC12CC3(C)CC(C)(C1)CC(C(=O)NC1=NCCS1)(C2)C3 | -0.65 | -0.75
Cc1cc(OC(=O)c2cccs2)c(Cl)c(C)c1Cl | -0.24 | x
C=C(C)CNC(=S)N1CCNCC1 | 0 | -0.5

Given field by field: entries from further up
NC(=O)CSc1nnc(-c2cccnc2)n1-c1ccccc1
  Ba CapD inh: 70
  AID504770: 0.05
CC(=O)Nc1sc2c(c1C(N)=O)CCCC2
  Ba CapD inh: x
  AID504770: 0
CC(C)Cn1c(=O)c(C(=O)Nc2nc3ccc(F)cc3s2)c(O)c2ccccc21
  Ba CapD inh: 0.025
  AID504770: x
CSCCNC(=O)NCCNc1ccc([N+](=O)[O-])cn1
  Ba CapD inh: -0.42
  AID504770: x

The results go on:
mol | Ba CapD inh | AID504770
C=C(C)c1cccc(C(C)(C)NC(=O)N2CCCC(C(N)=O)C2)c1 (stereo not drawn) | 0.3 | -0.65
CC(C)COc1ccc2c(c1)c1c3n2CCNC3CCC1 (stereo not drawn) | 0.42 | x
CCOc1cc(/C=c2/sc3nc(-c4cccc([N+](=O)[O-])c4)nn3c2=O)ccc1OC(C)=O | -0.66 | x
O=C(O)CCn1nc(-c2ccc(F)cc2)cc(Cc2ccccc2)c1=O | 2.9 | -0.65
CCCNC(=O)c1cc(-c2ccccc2)on1 | x | -0.25
NC(=O)C1CCN(C(=O)c2ccc3c(=O)n(-c4ccc(F)cc4)c(SCc4cccc(F)c4)nc3c2)CC1 | 0.44 | x
N#CC(c1ccc(Br)cc1)N1CCN(C(C#N)c2ccc(Br)cc2)CC1 (stereo not drawn) | -0.42 | -0.6
O=C(O)CNC(=O)c1ccc2ccccc2c1 | x | -2.2

Additional structures follow.
The line under a structure holds: Ba CapD inh	AID504770
- Nc1ccccc1SC(CC(=O)c1ccc(Br)cc1)c1ccccc1 (stereo not drawn)
    -0.94	-0.3
- COc1ccc(-c2ccc(Nc3ccc(OC(F)(F)F)cc3)nn2)cc1
    6.2	0.6
- O=c1cc(CSc2nnc(-c3ccccc3)o2)c2ccccc2[nH]1
    x	1.4
- NNc1ccccc1C(F)(F)F
    0.15	-0.85
- Cc1ccc2nc(C3CCCN(C(=O)NCc4ccccc4)C3)[nH]c2c1 (stereo not drawn)
    x	-0.8
- c1ccc2c(c1)NC(c1ccc3c(c1)OCO3)O2 (stereo not drawn)
    1.8	x
- COc1ccccc1CNC(=O)COc1cc(C)nn1-c1ccc(Cl)cc1
    -1.1	-0.85
- COc1cc(OCc2ccccc2)ccc1CN1CCN(Cc2ccccc2)CC1
    0.095	-0.8
- CC1CCN(C(=O)c2cc3n(n2)C(C(F)(F)F)CC(c2ccccc2)N3)C(C)C1 (stereo not drawn)
    x	0.1
- CC(=O)NS(=O)(=O)c1ccc(N2C(=O)CC(Sc3nc4ccccc4s3)C2=O)cc1 (stereo not drawn)
    -0.17	x
- CC1CCCC(NC(=O)Nc2noc3c2COc2ccccc2-3)C1C (stereo not drawn)
    0.005	0.25
- Cc1ccc(P(=O)(CO)c2ccc(C)cc2)cc1
    -0.36	1.1
- CCCCCCCCCCCCN=C(C)c1ccccc1O
    0.8	x
- CCOC(=O)C(C#N)C(=O)c1ccc(N)cc1 (stereo not drawn)
    -1.7	-0.85
- COc1ccccc1-c1nc(-c2ccc(C(F)(F)F)cc2)no1
    0.56	-0.5

Remaining list, next part:
The line under a structure holds: Ba CapD inh	AID504770
- CCN(Cc1ccncc1)C(=O)C1CC1C (stereo not drawn)
    0.21	-0.35
- COc1ccc(S(=O)(=O)NC2CCN(Cc3c(F)cccc3Cl)C2)cc1OC (stereo not drawn)
    0.45	x
- Cc1cc(C)nc(Sc2ccc(N(C)C(=O)c3ccc(C(C)(C)C)cc3)cc2)n1
    -0.44	x
- O=C(Nc1ccc2ccccc2n1)c1ccc(Cl)cc1
    7.6	-0.15
- Cc1cc(C)c2c(=O)c3c(oc2c1)C(=O)N(CCO)C3c1ccccc1F (stereo not drawn)
    3.9	0.35
- CCCCOc1ccc(-c2nnn(C(C)(C)C(=O)O)n2)cc1
    x	0.05
- Cc1ccccc1N/C(SCc1ccccc1Cl)=C(/C#N)C(=O)NCc1cccs1
    0.3	x
- COc1ccc(NC(=O)CSCc2ccccc2)cn1
    x	-0.3
- CCOc1nc2cccnc2n(C(CC)C(=O)Nc2ccccc2CC)c1=O (stereo not drawn)
    4.3	0.9
- CCNC(=O)NC(C)c1ccc(S(C)(=O)=O)cc1 (stereo not drawn)
    -0.31	x
- COC(=O)c1cnc(NN2C(=O)CCC2=O)nc1C(F)(F)F
    0.05	-0.2
- COc1cccc(NC(=O)c2ccccc2Cl)c1
    0.52	0.2
- CCC(CC)N1CCN(S(=O)(=O)CC)CC1
    x	-0.65
- CCOC(=O)c1c(N)nc(SC)n1-c1ccc(C(C)C)cc1
    1.8	x
- Cc1ccc(Oc2nc(Cl)nc(Oc3ccc(C)cc3)n2)cc1
    -0.17	-0.3

Remaining list, next part.
The line under a structure holds: Ba CapD inh	AID504770
- Cc1ccc(Cn2c(CCCNC=O)nc3ccccc32)cc1
    0.18	1
- CC(=O)Nc1ccc(C(=O)Cn2c3[n+](c4c(F)c(F)ccc42)CCCCC3)cc1
    -0.76	-0.85
- Cc1nn(C)cc1C(=O)c1ccccc1
    0.28	0.9
- CCOC(=O)c1c(-c2ccccc2)oc2ccc(OCc3c(F)c(F)c(F)c(F)c3F)cc12
    1.1	x
- C=CCSc1nnc(-c2cc3c(C(F)(F)F)nn(C)c3s2)n1C
    0.055	x
- COc1ccc2oc(=Nc3ccc(Cl)cc3Cl)c(C(=O)NC(C)=O)cc2c1
    0.42	x
- CC(=O)NCCc1nc2ccccc2n1CC(C)C
    -0.82	-0.7
- Cc1ccc(S(=O)(=O)c2c(F)c(F)c(S(=O)(=O)c3ccc(C)cc3)c(F)c2F)cc1
    x	-0.25
- COC(=O)c1sccc1S(=O)(=O)Nc1ccc(C)cc1
    -1.1	-1.1
- O=S(=O)(Cc1ccc(Cl)cc1Cl)c1nc2ncccc2[nH]1
    1	0.55
- O=C(N/N=C/c1c(-c2ccccc2)nc2sccn12)c1ccc2ccccc2n1
    x	-0.25
- OCCOCCNc1ncnc2sc(-c3ccccc3)cc12
    79	-0.75
- CCOC(=O)c1c(CNC(C)=O)n(CCBr)c2cc(Br)c(OC)cc12
    0.2	x
- CC1CN(S(=O)(=O)c2ccc(NC(=O)C(NC(=O)Cc3ccccc3)C(C)C)cc2)CC(C)O1 (stereo not drawn)
    x	-0.7
- CCc1ccc(C2CC(=O)NC(N)=N2)cc1 (stereo not drawn)
    0.21	0.55
- C=C1SC(=Nc2c(C)cccc2Cl)N(C(=O)c2sc3ccccc3c2Cl)C12CCCCC2
    0.33	x

Not all compounds are listed. The share of hits here may be higher or lower than overall.
